Source: PubChem
Beta2AR agonist = beta2AR agonists driving receptor internalization, primary screen, cell-based, FAP fluorogen, flow cytometry; 340,000 tested, 0.43% active; response, % (concentration not given with the values); Beta-2 adrenergic receptor (Homo sapiens), P07550; Am2.2-beta2AR cells; reference of the scale not given here;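 active = response above a set limit, near 3 SD of response in nonfluorescent compounds, cut at about 42% in these data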;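 also: stock transfer was 100 nL into about 11 µL; a reference agonist was the positive control; negative values mostly stem from fluorescent compounds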
Ecoli growth = E. coli growth inhibition, primary screen, OD600; Escherichia coli growth, 23 h; hits give low values; OD600 absorbance (concentration not given with the values); 330,000 tested, 0.21% active;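 active = OD600 absorbance below the run mean of sample wells minus 3.6 SD, in any replicate, cut at about 0.56 in these data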;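 also: stock transfer was 300 nL into about 60 µL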
FGF22 binding = binders of human FGF22 protein, primary screen, FGF22 synaptogenesis inhibitor project, biophysical, thermal shift, single point; AID 651658, 2012; recombinant FGF22 thermal shift, SYPRO orange fluorescence; percent of sucrose octasulfate shift, DMSO zero; calls only at 9.99 µM; 340,000 tested, 1.5% active;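 active = melting point raised past a set limit in the mean and every replicate; three in four hits are not shown here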
Target sequence (Q9HCT0 whole entry, looked up): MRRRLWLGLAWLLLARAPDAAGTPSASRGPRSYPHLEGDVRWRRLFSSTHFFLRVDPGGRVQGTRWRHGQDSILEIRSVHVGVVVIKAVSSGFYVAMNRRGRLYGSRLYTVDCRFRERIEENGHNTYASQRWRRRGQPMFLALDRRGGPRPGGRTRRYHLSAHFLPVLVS
Ecoli rRNA inh = reduced GFP signal of wild-type E. coli, primary screen, bacterial rRNA inhibitor project, GFP/RFP fluorescence, OD600, single point. E. coli WT GFP vs humanized-ribosome RFP mutants, 24 h; hits give low values; DMSO median 0, no signal -100. GFP signal change (wild-type ribosome), % (no concentration beside the values). 350,000 tested, 1.6% active. AID 720706, 2013;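 active = significant combined selectivity score with lowered wild-type GFP, culture density cut under 30%, mutant RFP and density less affected; inactive = any of these conditions unmet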; also: one replicate is shown; some compounds called inactive have numbers as strong as hits
UCH37 DUB inh = inhibitors of human UCH37 deubiquitinase, primary screen, biochemical, Ub-AMC cleavage, fluorescence | Ubiquitin carboxyl-terminal hydrolase isozyme L5 (Homo sapiens), Q9Y5K5 | purified proteasome/UCH37 | inhibition, % (concentration not given with the values) | 330,000 tested, 0.33% active;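 active = mean of two replicates above 20%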;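 also: 0% = compound-free wells with enzyme and 100% = wells lacking proteasome; stock transfer was 100 nL into about 20 µL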
Target sequence (Q9Y5K5 whole entry, looked up): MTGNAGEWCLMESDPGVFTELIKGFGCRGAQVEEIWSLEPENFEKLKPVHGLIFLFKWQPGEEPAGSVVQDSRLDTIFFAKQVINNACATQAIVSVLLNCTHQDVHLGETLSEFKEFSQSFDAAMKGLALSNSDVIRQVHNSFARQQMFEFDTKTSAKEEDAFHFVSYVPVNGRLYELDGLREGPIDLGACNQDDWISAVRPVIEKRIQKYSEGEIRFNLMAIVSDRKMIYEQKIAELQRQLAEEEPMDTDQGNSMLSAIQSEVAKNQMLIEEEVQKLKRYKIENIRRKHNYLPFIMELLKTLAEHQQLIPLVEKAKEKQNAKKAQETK
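System: Proteasome-associated human UCH37 deubiquitinase; Input: 0.15 nM proteasome in added enzyme buffer; Also added: Ub-AMC substrate from 1 µM stock; Incubation: 30 min compound-proteasome preincubation then 25 min substrate reaction, room temperature; Detection: fluorescence, ex 355 nm, em 460 nm; Read-out: % inhibition of Ub-AMC cleavage fluorescence; Benchmarks: no-proteasome and no-compound wells.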
ALR H2O2 inh = inhibitors of human ALR sulfhydryl oxidase, primary screen, biochemical, H2O2 detection, HRP-luminol luminescence, single point; FAD-linked sulfhydryl oxidase ALR (Homo sapiens), P55789; 290,000 tested, 3.8% active; inhibition, % (no concentration beside the values); AID 485317, 2010; purified ALR, DTT oxidation;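 active = mean and each replicate at 75% or more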;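 also: stock transfer was 7.5 nL into about 7.5 µL; 0% = neutral wells and 100% = wells with inactivated enzyme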
Target sequence (P55789 whole entry, looked up): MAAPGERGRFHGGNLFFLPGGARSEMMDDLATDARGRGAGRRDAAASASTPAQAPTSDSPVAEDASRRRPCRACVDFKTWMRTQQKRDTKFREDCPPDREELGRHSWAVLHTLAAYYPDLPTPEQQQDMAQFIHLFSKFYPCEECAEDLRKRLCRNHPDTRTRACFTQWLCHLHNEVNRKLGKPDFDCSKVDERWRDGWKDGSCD
HNF4A DNA FP = change in binding of human HNF4A to DNA, primary screen, biochemical, fluorescence polarization, FITC-DNA. Hepatocyte nuclear factor 4-alpha (Homo sapiens), P41235. 1 h. activity change, % at 10 µM. 360,000 tested, 0.3% active. AID 1224865, 2016; in the data active = activity change above about 30%, passing the limit was not always enough;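 also: controls were the assay level and a saturating level of protein; the project sought stronger binding though the title names inhibitors; some compounds called inactive have numbers as strong as hits; positive values seem to mean higher polarization but the record does not say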
Ecoli rRNA inh OD600 = also measured in Ecoli rRNA inh; calls as there; OD600 change, %; measured here: OD600 growth;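 optical density of the mix in the first replicate; 0 = DMSO median and -100 = no signal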
Ecoli rRNA inh RFP = second read-out of Ecoli rRNA inh, no call of its own (marks repeat the call); RFP signal change, %; measured here: RFP humanized mutant strains;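 first replicate; 0 = DMSO median and -100 = no signal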
* hit, by the source's call; i = inactive; nt = not tested or not shown; & = joins results of further samples. An excerpt; count on the stated rates, not on these rows.

canonical_smiles	ALR H2O2 inh	UCH37 DUB inh	Ecoli rRNA inh	Ecoli rRNA inh OD600	FGF22 binding	Ecoli growth	Beta2AR agonist	HNF4A DNA FP	Ecoli rRNA inh RFP
CC(C)(C)c1ccc(OCC(=O)NN2Cc3ccccc3C2=N)cc1	1	0.7	-19	-21	nt	0.68	1	1.7	-3.3
O=c1[nH]c(S)nc2sc3c(c12)CCCC3	nt	-0.6	nt	nt	nt	0.69	2	-3.9	nt
CSc1nnc(NC(=O)c2ccc(S(=O)(=O)N3CCOCC3)cc2)s1	-12	-2.2	0	11	i	0.68	0	3.9	-1.0
Cc1ccc2c(C)c(C(=O)N3CCN(c4cnccn4)CC3)oc2c1C	0	-38	-52	-78	i	0.72	1	-3.2	-13
COc1cccc(-c2nnc(SCC(=O)N3CC(C)CC(C)C3)o2)c1 (stereo unspecified)	nt	2.7	-20	-31	i	0.68	-2	1.4	-1.1
O=C(OCC(=O)N1CCC(c2ccccc2)=N1)c1ccc([N+](=O)[O-])s1	-68	8.1	5	5	nt	0.6	-2	3.9	0.8
COc1ccc(CN2C(=O)C(CC(=O)NCCCN(C)C)CC(C(=O)N(C(C)C)C(C)C)=C2C)cc1 (stereo unspecified)	nt	nt	17	7	i	nt	nt	-6.3	2.2
Cc1nc(SC(C)C(=O)c2c(N)n(C)c(=O)n(C)c2=O)c2c(C)c(C)sc2n1 (stereo unspecified)	91*	6.2	-33	-39	i	0.67	4	1.0	-7.5
CC(=O)Nc1ccc(S(=O)(=O)N2CCN(C(=O)c3ncoc3-c3ccccc3F)CC2)cc1	nt	5.8	-4	-6	i	0.68	0	0.2	-2.7
Cc1cc(=O)oc2c(C)c(OCC(=O)N(C)C)ccc12	-4	-19	nt	nt	nt	0.76	1	0.2	nt
O=C(CNC(=O)c1ccccc1)OCC(=O)N1c2ccccc2Sc2ccccc21	0	4.0	nt	nt	nt	0.63	-1	0.3	nt
COc1ccc(Nc2ccccc2C(=O)O)cc1	99*	7.3	4	-6	i	0.66	-1	1.9	-1.8
O=C(Nc1cnn(Cc2ccc(F)cc2)c1)c1cc(-c2cccs2)on1	-6	-2.1	5	11	i	0.75	-6	0.0	0.6
CCc1nnc(NC(=O)CCC(=O)NCCc2ccc(OC)c(OC)c2)s1	-25	2.9	nt	nt	nt	0.65	7	2.6	nt
Cc1ccsc1C(=O)OCC(=O)NC1CCS(=O)(=O)C1 (stereo unspecified)	-10	-1.4	11	6	i	0.68	-2	-0.1	-3.9
Cn1c(NCCc2ccncc2)nc2cc(-c3ccccc3)sc2c1=O	nt	nt	14	18	i	nt	nt	-3.0	9.7
CC(=O)c1ccccc1NC(=O)COc1ccc(N(C)S(=O)(=O)c2ccc(C)c(C)c2)cc1	0	1.0	nt	nt	i	0.67	1	-1.2	nt
O=C1c2ccccc2C(=Nc2ccccc2)C1c1cccc(Br)c1 (stereo unspecified)	-14	1.5	nt	nt	nt	0.7	-5	1.0	nt
CN(C(=O)c1ccccc1)C(=O)c1ccccc1	nt	nt	6	7	i	nt	nt	0.7	0.5
COc1ccc(C)cc1S(=O)(=O)Nc1cccc(-c2cn3cccnc3n2)c1	24	-480	-20	-6	i	0.66	-1	-4.2	14
COc1ccc(Nc2ccc(C(F)(F)F)cc2[N+](=O)[O-])cn1	-3	2.3	3	0	i	0.71	-11	-0.3	-1.4
Cc1ccc(SCC(=O)NNC(=O)c2ccc(S(C)(=O)=O)cc2)cc1	-4	0.1	15	13	i	0.68	-8	-1.3	-0.8
O=C1CCc2cc(S(=O)(=O)N3CCN(c4cccc(Cl)c4)CC3)ccc2N1	0	1.0	nt	nt	nt	0.71	0	2.5	nt
O=C(Nc1cc(S(=O)(=O)N2CCOCC2)ccc1Oc1ccc(F)cc1)C1=COCCO1	-1	2.0	8	3	i	0.68	-3	2.2	0.1
Cc1cc(=O)n2[nH]c(-c3cccnc3)nc2n1	-2	-0.4	8	13	i	0.65	nt	nt	-0.3
Cc1cc(S(=O)(=O)N2CCOCC2)ccc1OCC(=O)N1CCC(C(N)=O)CC1	-3	0.5	13	13	i	0.69	1	4.9	2.3
CCC(C)(C)NC(=O)c1ccc2c(c1)N(CC(=O)NC1CCCC1)C(=O)C(C)(C)O2	-3	1.8	-19	-34	i	0.69	-3	1.9	-5.3
CN(C(=O)C1CCN(c2ncnc3c2nc2n3CCCCC2)CC1)C1CCCCC1	0	3.2	-6	-16	i	0.7	-1	4.5	5.9
O=C(NCCNS(=O)(=O)c1ccc(Cl)cc1)c1cc(OCC(F)(F)F)ccc1OCC(F)(F)F	-16	1.8	nt	nt	nt	0.75	-10	3.9	nt
Cc1ccc(C)c(NC(=S)N2CCC(NC(=O)c3ccccc3)CC2)c1	0	nt	-25	-35	i	nt	2	2.9	-5.9
CC(C)(C)NC(=O)C1CCCN(S(=O)(=O)c2ccc(-n3cnnn3)cc2)C1 (stereo unspecified)	0	-1.2	nt	nt	i	0.65	-3	5.0	nt
Cc1oc(C)c(C(N)=O)c1C(N)=O	2	0.9	nt	nt	nt	0.73	7	1.6	nt
CSc1nc(N)nc(SCC(=O)OC(C)C)c1C#N	-6	2.6	nt	nt	nt	0.7	9	3.9	nt
CC1CCN(C(=O)CSc2nc(N)cc(N)n2)CC1	-16	4.8	nt	nt	nt	0.68	-6	5.6	nt
CN(C(=O)c1ccc(NC(=O)Cc2ccc([N+](=O)[O-])cc2)cc1)C1CC1	-2	-0.5	9	9	i	0.68	-5	4.3	-3.9
COc1ccc2c(=O)c3c(=O)n(CCc4ccccc4)c(C(C)C)nc3oc2c1	-31	-0.1	-1	4	i	0.7	-29	2.1	5.9
CCN(Cc1ccccc1)C(=O)c1cc(-c2ccc(OC)c(OC)c2)nc2ccccc12	-4	-63	-8	-23	i	0.7	8	-2.8	5.1
O=C1N(c2ccccc2)C(c2ccccc2)N2CCCN12 (stereo unspecified)	-24	3.8	11	7	i	0.67	4	-1.5	2.1
Cc1c(C(=O)N2CCN(c3ccccn3)CC2)sc2ncnc(N3CCOCC3)c12	nt	1.6	-1	2	i	0.66	-4	-1.7	-0.3
O=C(CSc1nnc2scc(-c3ccccc3)n12)NCC1CCCO1 (stereo unspecified)	-2	1.2	nt	nt	nt	0.71	1	3.3	nt
Cc1cc(Cl)ccc1NC(=O)C(=O)N/N=C/c1ccc2c(c1)OCO2	nt	nt	5	12	i	nt	10	1.8	-0.7
C[C@@H]1CN([C@H](C)CO)C(=O)CCCn2cc(nn2)CO[C@H]1CN(C)C(=O)Nc1ccc2c(c1)OCCO2	nt	nt	4&1	7&8	i	nt	nt	-0.7	-0.4&-2.7
O=C1C(=O)N(c2nccs2)C(c2ccccc2F)/C1=C(\O)c1ccc2c(c1)OCCO2 (stereo unspecified)	98*	8.9	-16	-22	i	0.72	5	-0.5	-6.4
O=C1CCc2cc(S(=O)(=O)N3CCCCC3)cc3c2N1CCC3	0	-0.2	-1	0	i	0.59	5	-1.7	-1.5
N#C/C(=C1\CCCN1)c1nc(-c2ccccc2)cs1	-13	2.6	nt	nt	nt	0.67	3	6.9	nt
CCOC(=O)c1sc(=NC(=O)c2ccc(OC(C)C)cc2)n(C)c1C	nt	-72	-3	3	i	0.72	-4	1.2	-1.5
Cc1onc(-c2ccccc2)c1C(=O)OCCOc1cccc(Cl)c1	-20	2.1	-15	-24	i	0.69	3	-0.8	-0.8
CCOC(=O)N1CCN(Cc2ccc3c(c2)OCO3)CC1	nt	1.4	11	9	i	0.6	0	-2.2	0.4
O=C(NCc1ccc2c(c1)OCO2)c1c(O)nc2sccn2c1=O	nt	nt	10	2	i	nt	3	-0.5	0.3
Cc1cc(C(=O)CSc2n[nH]c(N)n2)c(C)n1C1CC1	7	0.5	nt	nt	nt	0.76	0	3.2	nt
O=C(N[C@H]1CCC(=O)N(CCSc2ccc(Br)cc2)CC1)OCc1ccccc1	-3	1.6	-17	-24	i	nt	-13	6.0	31
O=C(NCCCCNC(=O)c1ccc(Br)cc1)c1ccc(Br)cc1	0	5.1	12	14	i	0.67	3	2.7	-0.2
CC(C)(C)CC(C)(C)NC(=O)/C=C/C(=O)O	-7	1.2	18	10	i	0.62	3	8.7	0.1
O=C(c1ccc(S(=O)(=O)N2CCOCC2)cc1)N(c1ccccc1)C1C=CS(=O)(=O)C1 (stereo unspecified)	1	-0.2	nt	nt	nt	0.68	9	3.6	nt
O=C(COC(=O)c1ccc(F)cc1Cl)NC1CC1	nt	nt	4	13	i	nt	nt	-1.7	0.8
O=C(c1cccs1)N(c1cccc(Cl)c1)C1C=CS(=O)(=O)C1 (stereo unspecified)	7	5.3	17	15	i	0.69	0	-6.1	2.5
OCCNc1nc2ccccc2n1-c1ccccc1	34	2.4	nt	nt	nt	0.73	-8	-2.5	nt
Cc1ccc(SCC(=O)OCC(=O)NC2CCCCCC2)cc1	0	3.6	4	6	i	0.76	4	3.0	1.2
CC1(C(=O)NS(=O)(=O)c2ccccc2C(F)(F)F)CCN1C(=O)CC1CCCC1 (stereo unspecified)	nt	nt	8	15	i	nt	nt	3.4	0.1
COc1ccc(-c2sc3ccc(OC)cc3c2C#CCCO)cc1	-2	nt	-43	-71	nt	nt	18	0.1	-7.2

(next part)
canonical_smiles	ALR H2O2 inh	UCH37 DUB inh	Ecoli rRNA inh	Ecoli rRNA inh OD600	FGF22 binding	Ecoli growth	Beta2AR agonist	HNF4A DNA FP	Ecoli rRNA inh RFP
Cc1cc(C)c(NC(=S)N(CCN(C)C)C(C)c2cccnc2)c(C)c1 (stereo unspecified)	29	1.7	12	-2	i	0.67	3	-4.4	0.2
COc1cccc(-c2ccc(SCC(=O)NCCc3ccccc3)nn2)c1	-2	4.6	-12	3	i	0.7	-6	0.7	3.1
CCNC(=O)N(C)C[C@H]1N[C@@](Cc2ccccc2)(C(=O)OC)[C@H]2C(=O)N(C)C(=O)[C@@H]12	nt	-2.4	6	0	i	0.7	4	-1.2	-0.4
O=C(Cn1c2[n+](c3ccc(C(F)(F)F)cc31)CCCCC2)c1ccc2c(c1)OCCO2	-22	2.7	-38*	-14*	i	0.68	-9	-1.9	11*
O=C(c1ccc(Br)o1)N1CC=C(c2ccccc2)CC1	2	3.6	-6	9	i	0.67	9	-2.8	11
Fc1ccc(-c2nnc(-c3ccc4ccccc4c3)o2)cc1	nt	-12	-6.9*	2.4*	i	0.66	2	-0.4	0.9*
CC(=O)Nc1ccc(NC(=O)C2Cc3c(-c4ccc5c(c4)OCO5)ccnc3O2)cc1 (stereo unspecified)	nt	nt	0	-5	i	nt	nt	0.8	-2.0
CCOc1ccc(N2CC(C(=O)Nc3cc(Cl)ccc3-n3cncn3)CC2=O)cc1 (stereo unspecified)	-7	0.8	5	6	nt	0.68	-10	1.5	2.4
